From PubChem BioAssay
Six1-Eya2 inh: inhibitors of human Six1/Eya2 interaction. AlphaScreen GST-Six1/His-Eya2 binding, biochemical; hits give low values; control for the full effect not named in the record. activity change, % (no concentration beside the values). 360,000 compounds, 0.56% hits. AID 651725; in the data active = activity change below about -65%; inconclusive = about -30% to -65%; inactive = above about -30%; also: % is scaled to controls: 0 for no effect and ±100 for the full control effect
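Six1/Eya2 binding was read as AlphaScreen signal after compounds were pinned into GST-Six1 plus His-tagged Eya2 (5X stock 250/500 nM) in pH 8.0 Tris/NaCl/TCEP buffer, beads added, then incubated 1 h, 37 C, dark.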
CtBP-E1A inh: inhibitors of CtBP/E1A interaction; AlphaScreen GST-E1A/His-CtBP binding, 1536-well; hits give low values; control for the full effect not named in the record; activity change, % (concentration not given with the values); 340,000 compounds, 0.49% hits; in the data active means activity change below about -65%; inconclusive means about -30% to -65%; inactive means above about -30%; also: % is scaled to controls: 0 for no effect and ±100 for the full control effect
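Homogeneous bead-based format: GST-tagged E1A captured on glutathione donor beads, His-tagged CtBP on nickel acceptor beads; compounds precede bead addition by 2 h at 37 °C.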
D2 ag: activates the human D2 dopamine receptor; 360,000 compounds, 0.084% hits; activation, % (concentration not given with the values); AID 624465; P14416; DiscoveRx PathHunter D2 beta-arrestin, luminescence, 90 min; 100% = 57 uM dopamine signal; in the data active = activation above about 40%; inconclusive = about 15% to 40%; inactive = below about 15%; also: the text of the record calls up to 30% inactive
Target sequence (P14416 whole entry, looked up): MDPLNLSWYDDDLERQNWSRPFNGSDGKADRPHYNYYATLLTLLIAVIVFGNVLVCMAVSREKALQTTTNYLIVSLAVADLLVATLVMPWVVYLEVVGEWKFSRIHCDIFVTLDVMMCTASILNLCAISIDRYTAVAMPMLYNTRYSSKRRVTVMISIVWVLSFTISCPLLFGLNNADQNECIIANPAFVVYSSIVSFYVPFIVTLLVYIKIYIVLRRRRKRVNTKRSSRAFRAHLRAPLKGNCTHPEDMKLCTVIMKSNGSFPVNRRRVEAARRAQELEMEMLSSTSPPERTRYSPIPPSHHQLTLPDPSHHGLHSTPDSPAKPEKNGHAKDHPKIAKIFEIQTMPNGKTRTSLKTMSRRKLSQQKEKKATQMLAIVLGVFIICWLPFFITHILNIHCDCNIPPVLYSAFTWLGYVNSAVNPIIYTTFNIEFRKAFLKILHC
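DiscoveRx PathHunter D2 beta-arrestin cells (2,100/well) attached overnight, then compound-stimulated 90 min at 37 C in HBSS/10 mM HEPES/0.1% Tween-20 buffer; beta-galactosidase complementation read by luminescence after 1 h at ambient temperature. Dopamine 57 uM final (EC100) as control.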
D2 PAM: potentiates the human D2 dopamine receptor allosterically; DiscoveRx D2 beta-arrestin cells, luminescence, 90 min; 100% = 57 uM dopamine signal; P14416; potentiation, % (concentration not given with the values); 360,000 compounds, 0.23% hits; AID 624464; active = potentiation of 50% or more; inconclusive = 30% to 50%; inactive = 30% or less;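 also: tested on top of an EC20 dose of dopamine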
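PathHunter beta-arrestin assay in DiscoveRx D2 cells. Compounds were added with an EC20 of dopamine (50 nM final) for 90 min at 37 deg C. Luminescence was read 1 h after detection reagent, with 57 uM dopamine as the EC100 control.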
gsp antagonist: antagonizes gsp, the McCune-Albright syndrome mutation. gsp-mutant cells, cAMP HTRF, 30 min; control for the full effect not named in the record. Potency, µM (titrated, usually from 76.9 µM), inactives show at the highest dose activity change, negative = inhibition, hits mostly inhibitors. 340,000 compounds, 0.4% hits. AID 624288; active = falling curve of any shape with a large fitted effect; inconclusive = falling curve, mostly with a smaller effect; inactive = flat or rising curve; cell line not stated here;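 also: intracellular cAMP measured with PDE inhibitor Ro 20-1724 present during compound exposure; potency is read from the fitted curve at half-maximal effect; % is scaled to controls: 0 for no effect and ±100 for the full control effect; nearly all actives have a fitted effect of over 65% in size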
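Cells in G418 medium, seeded 16-24 h, 37C; buffer exchange to DPBS + 1 mM CaCl2, 0.5 mM MgCl2, 0.05% BSA; cpds in DMSO + […] (300 uM stock), 30 min 37C; HTRF cAMP detection.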
gsp ag: agonists of gsp mutant (McCune-Albright syndrome); gsp mutant cells, cAMP HTRF, 30 min; control for the full effect not named in the record; Potency, µM (highest dose often 76.9 µM), for inactives: at the top dose activation (cAMP increase), actives largely listed as activators; 340,000 compounds, 0.13% hits; active = well fitted activation curve with a large enough effect; inconclusive = small, poorly fitted or top-dose-only effect, or another doubt; inactive = no such curve, though single readings can be large or run the other way; cell line not stated here;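 also: phosphodiesterase inhibitor Ro 20-1724 added with compounds to block cAMP breakdown; potency is read from the fitted curve at half-maximal effect; nearly all actives have a fitted effect of over 60% in size; about a fifth of the inactives were tested at one dose only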
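Cells in DMEM/10% FBS with G418 were pretreated with compounds in DMSO plus […] (300 uM stock) for 30 min at 37C. cAMP was measured by HTRF (cAMP-d2 plus anti-cAMP antibody-K) after 30 min at room temperature.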
Starred values were filed as active, the others as inactive; ? = inconclusive; . = not tested or not shown; [ ] = dose if it differs, or a comment.

SMILES | Six1-Eya2 inh | CtBP-E1A inh | D2 ag | D2 PAM | gsp antagonist | gsp ag
O=C(CCSc1ccccc1Cl)NNC(=O)c1ccncc1 | 5.7 | -3.2 | -6.9 | -28.8 | 5.4% | 4.4%
COc1ccccc1N1CCN(/N=C/c2c(C)nn(-c3ccccc3)c2C)CC1 | ? | ? | 6.4 | -8.0 | ? | -24.0%
O=C(Cc1cccc2ccccc12)NCCC1=CCCCC1 | -0.8 | 3.1 | -1.9 | -15.3 | -5.0% | -45.2%[inhibitor]
Cc1cccc(NC(=O)CN2CCN(C(=O)c3ccc(-c4nc5ccccc5s4)o3)CC2)c1C | -8.6 | -11.6 | -3.0 | 1.6 | ? | -12.5%[15.4 µM]
CC1S/C(=N/N=C/c2ccco2)NC1=O (stereo not drawn) | 4.0 | -8.9 | -1.7 | 3.2 | 0.0% | -7.0%
Cc1ccc(CNC(=O)c2cc(-c3ccccc3C)n(CC3CC(c4cccc([N+](=O)[O-])c4)=NO3)n2)cc1 (stereo not drawn) | -11.8 | -9.2 | -6.5 | -11.6 | -11.2% | .
Cc1ccc(C(=O)NNC(=O)CCC(=O)Nc2cc(C)on2)cc1 | 1.4 | 4.2 | -4.3 | -7.3 | 15.2% | -4.5%
COC(=O)Nc1ccc(S(=O)(=O)n2cnc3ccccc32)cc1 | 7.7 | 12.3 | -2.2 | -9.8 | 3.6% | -23.6%
CCCNC(=O)c1cc(C2CCCN(C(=O)c3cc(C(C)(C)C)nn3C)C2)on1 (stereo not drawn) | 0.1 | -5.8 | -4.2 | -5.8 | . | .
O=C1c2ccccc2C(=O)c2cc(N3CCCCC3)ccc21 | ? | ? | -1.0 | ? | ? | -22.1%
CC(Sc1nnc(C2CC2)n1C1CC1)C(=O)N(C)C1(C#N)CCCCC1 (stereo not drawn) | 3.3 | -2.3 | -3.0 | -2.0 | -2.5% | 20.7%
COc1cccc(C(C(=O)NC2CCCCC2)N(C(=O)c2cccs2)c2ccc3c(c2)OCO3)c1 (stereo not drawn) | -13.5 | -17.2 | -5.3 | -6.0 | -8.6% | -5.4%

Some values from above.
`Cc1ccc(C(=O)NNC(=O)CCC(=O)Nc2cc(C)on2)cc1` in D2 PAM has -7.3
`Cc1cccc(NC(=O)CN2CCN(C(=O)c3ccc(-c4nc5ccccc5s4)o3)CC2)c1C` in CtBP-E1A inh has -11.6

Just CtBP-E1A inh, Six1-Eya2 inh and gsp antagonist (two entries from above):
mol,CtBP-E1A inh,Six1-Eya2 inh,gsp antagonist
CC(Sc1nnc(C2CC2)n1C1CC1)C(=O)N(C)C1(C#N)CCCCC1 (stereo not drawn),-2.3,3.3,-2.5%
COC(=O)Nc1ccc(S(=O)(=O)n2cnc3ccccc32)cc1,12.3,7.7,3.6%

Continued:
SMILES | Six1-Eya2 inh | CtBP-E1A inh | D2 ag | D2 PAM | gsp antagonist | gsp ag
Cc1ccc(C2(C)NC(=O)N(Cc3c(C)noc3C)C2=O)cc1 (stereo not drawn) | 0.8 | 2.2 | -2.1 | -11.5 | -3.4% | -48.2%[inhibitor]
O=C(Cc1c(C(=O)O)[nH]c2ccc(Cl)cc12)Nc1ccc2c(c1)OCCO2 | -10.5 | -10.8 | -6.4 | -7.1 | 2.9% | -35.5%
COCCn1c(=NC(=O)C(C)(C)C)sc2cc([N+](=O)[O-])ccc21 | 1.6 | -3.0 | -2.7 | -10.9 | 4.3% | 6.7%
Cc1ccc(C(=O)Cn2cncn2)cc1 | 2.6 | 2.8 | 4.3 | -4.0 | 9.4% | -10.1%[15.4 µM]
O=C(NC1CCCc2ccccc21)C1CCN(S(=O)(=O)c2cccc3nonc23)CC1 (stereo not drawn) | -7.9 | -0.6 | -2.1 | -5.3 | -2.9% | -9.3%
CCc1ccc(-c2nc(CS(=O)CC(=O)NC3CCCCCC3)c(C)o2)cc1 (stereo not drawn) | -4.6 | -10.9 | -0.3 | -7.3 | -5.8% | -17.2%
CCCNC(=O)c1cc(C2CCCN(C(=O)c3ccccc3)C2)on1 (stereo not drawn) | 2.7 | 8.3 | -6.9 | 1.3 | . | .
C[C@H](CO)N1C[C@H](C)[C@H](CN(C)C(=O)Nc2cccc(Oc3ccccn3)c2)OCc2cnnn2CCCC1=O | 4.0 | -3.7 | -6.1 | -3.0 | . | -15.7%
O=C(Cn1cc(S(=O)(=O)Cc2ccccc2)c2ccccc21)Nc1ccccc1 | -0.8 | -0.9 | 0.3 | 7.7 | -14.9% | -15.3%
Cc1ccc(Cl)c2c1NC(=O)C2=O | 3.8 | 1.9 | -14.9 | -40.5 | 10.5% | 4.7%
Cc1cccc2c1ncc1c(=O)n(-c3ccccc3)[nH]c12 | -16.0 | ? | 2.2 | -6.5 | -15.0% | 12.3%
NS(=O)(=O)c1ccc(NC(=S)N2CCN(Cc3ccc4c(c3)OCO4)CC2)cc1 | -1.0 | . | -4.3 | -11.5 | -18.5% | 7.9%
Cc1ccsc1C(=O)N(C)CC(=O)N(CC(C)C)c1c(N)n(CC(C)C)c(=O)[nH]c1=O | 8.9 | 8.6 | -6.5 | -27.9 | 7.5% | 2.6%
Cc1ccccc1C(=O)Nc1ccc(N(C)C)c2ccccc12 | -5.8 | -5.5 | -1.0 | -2.6 | 5.1% | -34.5%[inhibitor]
Cc1cccc(NC(=O)C2=C(O)c3ccccc3N(C)S2(=O)=O)c1 | 3.3 | -2.7 | 0.5 | -4.6 | 25.1µM* | 18.3%
COc1ccc(OC)c(C2C(C(=O)O)c3ccccc3C(=O)N2C)c1 (stereo not drawn) | 0.8 | 1.1 | -1.2 | 4.7 | 0.8% | -22.3%
COc1ccccc1NC(=O)COC(=O)C1CCN(/C=C/C(=O)C(F)(F)F)CC1 | 22.6 | 3.7 | -1.9 | -8.8 | -14.2% | -29.4%
CC(=O)c1sc(NC(=O)C2COc3ccccc3O2)nc1C (stereo not drawn) | 6.4 | -7.4 | -4.5 | -12.6 | 0.7% | ?
COc1ccc(-c2noc(CCC(=O)NC3CCCCC3)n2)cc1OC | 7.4 | -0.4 | 1.9 | 3.0 | -5.9% | 17.1%
CCc1ccc(S(=O)(=O)Nc2cccc(C3OCCCO3)c2)cc1 | 2.9 | 3.3 | -3.6 | -5.6 | -12.5% | -2.3%[15.4 µM]
COc1ccc(/C=C/C(=O)OCC(=O)N2CCN(S(=O)(=O)c3ccc(C)cc3C)CC2)cc1OC | -29.5 | ? | 12.1 | 7.5 | -14.6% | -16.5%
COc1ccc(OC)c(C(=O)NC(CC(N)=O)c2ccc(NCCN3CCOCC3)c([N+](=O)[O-])c2)c1 (stereo not drawn) | -21.3 | 4.9 | -1.2 | -7.1 | 10.0% | -4.4%
COC(=O)c1c[nH]c(=S)n1Cc1ccccc1 | -3.4 | 3.4 | -2.8 | -5.7 | 7.6% | 3.9%
O=[N+]([O-])c1cc(-c2cnc3ccccc3n2)ccc1Cl | 0.0 | -7.6 | -1.0 | 2.2 | -14.5% | -29.1%[15.4 µM]
COC(=O)C1(c2ccccc2)NC(c2ccc(O)cc2)C2C(=O)N(c3ccc4c(c3)OCO4)C(=O)C21 (stereo not drawn) | -0.3 | -20.1 | -2.8 | -23.0 | -15.6% | 7.8%
O=C(CN1CCc2ccccc2C1)Nc1cc(S(=O)(=O)N2CCOCC2)ccc1N1CCCC1 | 0.1 | 29.4 | 2.6 | -38.7 | -0.4% | -7.4%
NC(=O)CC1NC(=O)c2cc([N+](=O)[O-])cc(I)c2OCCC(C(N)=O)NC(=O)[C@@H]2CCCN2C1=O (stereo partly drawn) | 2.4 | -8.2 | 2.4 | -8.5 | -8.0% | .
O=C(O)CCC1(C(=O)O)OCCc2ccccc21 (stereo not drawn) | 0.6 | 5.1 | -2.7 | -1.2 | 5.9% | 1.6%
CCCN1C(=O)/C(=C/c2cc(C)n(C)c2C)SC1=Nc1ccc(OCC)cc1 | -5.7 | -10.4 | 0.1 | 3.7 | -1.1% | 17.6%
Cc1cccc(OC(C)C(=O)Nc2cc(S(=O)(=O)N3CCCCC3)ccc2C)c1 (stereo not drawn) | 4.7 | -3.8 | 0.0 | 0.4 | -7.2% | 3.3%
CC(=O)Cn1ncc(N2CCOCC2)c(Cl)c1=O | 17.1 | . | -4.9 | -21.7 | -5.6% | -0.1%
CCCNC(=O)Cn1c(=O)/c(=C\c2ccc(-c3ccc([N+](=O)[O-])cc3)o2)s/c1=C\C(=O)C(C)(C)C | 5.2 | -1.8 | -1.6 | 6.6 | -13.4% | -4.9%[15.4 µM]
COc1ccc(CCNC(=O)c2nn(C)c3c2CS(=O)(=O)c2ccccc2-3)c(OC)c1 | -5.9 | -11.2 | -3.3 | 1.3 | ? | 28.0%
Cc1cccc(CN2CCSCC2)c1 | 0.2 | 0.2 | 5.5 | -3.3 | -1.2% | -16.3%
Cc1ccc(CCNC(=O)C2CCCN(c3ncnc4c3nc3n4CCCCC3)C2)cc1 (stereo not drawn) | 2.8 | 0.3 | -2.7 | -7.5 | 8.9% | ?
C#Cc1cccc(NC(=O)c2ccc(Cl)cc2Cl)c1 | -7.5 | . | -8.0 | ? | -7.4% | -1.5%
Cc1ccc(C(=O)Nc2ccccc2C(=O)NCc2ccco2)cc1 | -0.8 | 18.2 | -1.7 | -11.4 | -21.2% | 2.8%
CCOC(=O)c1c(NS(=O)(=O)c2cccc(OC)c2)sc2c1CCC2 | -2.9 | -5.4 | -4.2 | 5.5 | ? | 4.1%
Cc1ccc(S(=O)(=O)N2CCOCC2)cc1C(=O)N1CCN(S(=O)(=O)c2cccc(F)c2)CC1 | 20.7 | 1.1 | 3.5 | 1.8 | -14.2% | 7.8%
CCOC(=O)Cc1csc(NC(=O)CCC(=O)O)n1 | -2.0 | 8.2 | -1.4 | -3.8 | 8.2% | 2.1%
Cc1ncc([N+](=O)[O-])n1CCOC(=O)c1cc(Cl)cc(Cl)c1N | ? | 8.6 | 6.6 | 14.9 | -7.9% | -21.4%[15.4 µM]
CCCCN(CCCC)C(=O)c1cn(CC)c2cc(N3CCN(C)CC3)c(F)cc2c1=O | 0.9 | 5.3 | -0.8 | -7.9 | 5.4% | 27.5%
Cc1cc(NCCCn2ccnc2)n2nc(-c3ccc(Cl)cc3)cc2n1 | -14.7 | -6.8 | 2.2 | -26.2 | -10.1% | -1.8%
CCOc1cc(C(C(=O)NCC2CCCO2)N(C(=O)Cn2nnc3ccccc32)c2ccc(NC(C)=O)cc2)ccc1O (stereo not drawn) | 1.3 | 1.4 | -1.3 | -8.3 | 8.2% | -3.7%[15.4 µM]
C/C(=N\OCc1ccccc1C#N)c1cc2ccccc2o1 | 21.7 | 0.2 | -7.2 | -9.9 | 14.7% | 6.2%[15.4 µM]
COc1ccc(S(=O)(=O)N2CCC(NC(=O)Nc3ccc(C)cc3)CC2)cc1 | -9.6 | ? | -2.5 | -10.5 | 0.6% | -40.3%[inhibitor]
